# Autofluor counter: compound fluorescence in toxin protease inhibitor counterscreen; compound autofluorescence counterscreen, microsphere flow cytometry; stronger effect = higher value; fluorescence intensity (test concentration not listed); 3.1% of 360,000 active; AID 624483;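 active = at least 3 SD above the mean of all compounds, about 16000 in these data; inconclusive = too few beads counted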;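 also: 100 nL of 1 mM stock went into each well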
# PrP UTR inh: inhibition of PrP 5' UTR reporter expression; cell-based PrP 5' UTR mRNA reporter, plate reader; inhibition, % (no concentration beside the values); 0.35% of 340,000 active; AID 488862;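 active = every replicate at 50% or more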;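 also: 0 = median of the neutral control wells; tested in H4 reporter cells; numbers are from one replicate; inactives centre near -14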
# Sa ugtP lethal: growth inhibition of S. aureus ugtP deletion strain; S. aureus RN4220 ugtP deletion, OD600 growth, 16 h; some inactives read as strong as hits; growth inhibition, % (test concentration not listed); 0.54% of 330,000 active;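 active = z-score under -3 and OD600 up to 0.15 on both plates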;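 also: plate controls were untreated wells for no effect and antibiotic for full effect; wells of about 80 µL received 100 nL stock; the first replicate is given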
# BJeLR viability: BJeLR cell viability loss; BJeLR (HRASV12) viability, CellTiter-Glo ATP luminescence, 48 h; reference of the scale not given here; inhibition, % (no concentration beside the values); 0.17% of 300,000 active;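 active = replicate mean above 50%; inconclusive = above 50% but judged a plate artefact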;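 also: 50 nL library stock added to about 25 µL; numbers are from one replicate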
# Sa RN4220 lethal: kills Staphylococcus aureus RN4220; S. aureus RN4220 growth, OD600, 16 h; inhibition, % (test concentration not listed); 0.33% of 330,000 active; AID 1259311;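 active = z-score of -3 or lower and OD600 up to 0.18 on both plates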;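 also: plate controls were untreated cells for no effect and reference antibiotic for full effect; stock transfer was 100 nL into about 80 µL; one replicate is shown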
# Mtb hypoxia rep: inhibitors of hypoxia-regulated fluorescent reporter in Mycobacterium tuberculosis | M. tuberculosis hypoxia-regulated fluorescent reporter, fluorescence | fluorescence inhibition, % (no concentration beside the values) | 0.1% of 300,000 active | AID 1159583;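 active = 35 to 45% if threefold the growth effect, above 45% if 1.5-fold the growth effect; inactive = the rest, general growth blockers included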;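 also: wells of about 50 µL received 100 nL stock; 0% = vehicle wells and 100% = reference inhibitor wells; whole bacteria with a GFP reporter of the hypoxia response; strong numbers were not always called active; many hits fall short of the cut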
# Mtb hypoxia rep growth: second read-out of Mtb hypoxia rep, no call of its own (marks repeat the call); growth inhibition, %; measured here: M. tuberculosis growth (absorbance);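 0% = vehicle and 100% = reference antibiotic; read after six days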
# Active calls of the source: *; ? = inconclusive; . = not tested or not shown.
canonical_smiles	Mtb hypoxia rep	Sa ugtP lethal	BJeLR viability	Autofluor counter	Mtb hypoxia rep growth	Sa RN4220 lethal	PrP UTR inh
COC(=O)Nc1nc2ccc(Br)cc2s1	8	7	2	4823	-2	5.6	-58
COc1ccc(OC)c2c(C)cc(N3CCCN(C)CC3)nc12	2	-11	-2	21960*	10	-5.5	-28
Cc1c([N+](=O)[O-])cc(C(=O)Nc2ccc3ncccc3c2)cc1[N+](=O)[O-]	5	8	-5	3584	6	3.4	-15
COc1ccc(-n2c(Cc3cccn3C)nnc2SCC(=O)N2CCOCC2)cc1	.	10	-6	4421	.	3.7	-15
Cc1ccccc1NC(=O)Cn1nc(C)c2ccccc2c1=O	9	6	-20	3448	4	1.1	-13
CCOC(=O)C1(CCOc2ccccc2)CCN(Cc2cccs2)CC1	-2	4	3	4488	5	8.1	-10
COc1ccc(-n2cnc3c(sc4nccc(N(C)C)c43)c2=O)cc1	0	11	0	3207	0	8.9	0
CCNCC(=O)N1c2ccccc2CCc2ccc(NC(C)=O)cc21	7	15	-5	9124	0	5.2	-16
Cc1ccc(N=Cc2c(O)n(C)c(=O)n(C)c2=O)cc1	12	7	-2	3261	3	6.4	-36
CCC1=C(OC(=O)N(CC)CC)N2C(=O)OC(=NCC(=O)OC)[C@]2(C)C2C1=CCC1C(=O)N(CC(=O)OC)C(=O)C12 (some centres not stated)	6	3	.	.	3	7.3	.
Cc1c(C(=O)N/N=C/c2ccoc2)cccc1[N+](=O)[O-]	.	.	-15	5546	.	.	-5
Nc1nnc(P(c2ccccc2)c2ccccc2)s1	5	11	0	4302	4	1.8	1
O=C(O)CCCC(=O)NCCc1ccncc1	11	6	6	3956	3	2.0	0
O=C(Oc1ccc(Cl)c2cccnc12)C12CC3CC(CC(C3)C1)C2	0	14	12	2331	9	2.5	-10
COc1c(Br)cc([N+](=O)[O-])c(OC)c1C(=O)NC(=O)Nc1nc(C)cc(C)n1	3	-4	-14	?	6	1.7	-17
CC(C)c1ccc(C2OCCCO2)cc1	8	2	.	2782	20	12	-15
Cc1ccc(S(=O)(=O)N2CCOCC2)cc1C(=O)N1CC(C)OC(C)C1 (configuration not stated)	0	7	-13	4901	-3	1.0	-22
CN(c1ccccc1)S(=O)(=O)c1ccc(C(=O)OCC(=O)NC(N)=O)cc1	-1	8	1	3394	-9	2.8	-32
Cc1ccc2c(c1)COc1c3ccc(C(=O)N[C@@H](CO)C(C)C)cc3nn1-2	.	.	2	3214	.	.	-19
Cc1nn(C)cc1CNC(=O)c1ccc(F)cc1	-5	3	-3	2551	-1	1.7	-10
CC(=O)c1cc(Cl)ccc1OCc1cccc(S(=O)(=O)N2CCOCC2)c1	10	3	11	6370	0	1.6	-14
Cc1ccc(NC(=O)COC(=O)c2ccc(F)cc2Cl)c(Br)c1	19	3	5	4833	2	0.0	-12
Cc1ccc(S(=O)(=O)N2CCN(C(=O)COC(=O)CSc3ccccc3)CC2)c(C)c1	9	5	-6	5349	-1	4.3	-10
CCOc1ccc(C(=O)CCC(=O)Nc2cccc(S(=O)(=O)N3CCCCC3)c2)cc1	6	-2	.	6999	1	0.2	-2
COc1ccccc1-n1c(CNC(=O)c2ccco2)n[nH]c1=S	2	4	1	5948	-4	1.8	-19
O=C(N/N=C/c1ccncc1)NC12CC3CC(CC(C3)C1)C2	.	.	2	3812	.	.	-11
CCOC(=O)c1c(NC(=O)CN2C(=O)NC3(CCC(CC)CC3)C2=O)sc(C)c1-c1ccc(C)cc1 (configuration not stated)	3	10	14	2490	5	0.2	-25
CCOC(=O)CNC(=O)N1CCC(CCC(=O)N(C)Cc2ccccc2)CC1	0	3	3	4071	-4	4.5	-8
Cc1cc(C(=O)O)c(CCCN)s1	-7	0	6	8729	-2	-2.0	9
Cc1cc(SCC(=O)N2CCCC2=O)nc2ccccc12	3	2	.	4146	3	5.2	-5
CCc1ccccc1OCC(=O)Nc1nc(-c2cccnc2)cs1	7	74	-6	4537	8	56	-8
COc1cc(C#N)ccc1OCC(=O)NCc1cccs1	-5	4	1	4778	-5	2.6	-13
COc1ccc(C(=O)N2CC(c3ccc(Cl)cc3)CC2=O)cc1 (configuration not stated)	12	3	0	.	-1	2.0	.
COc1ccc(Nc2ncc(C(=O)N3CCN(c4ccccc4OC)CC3)c3ccccc23)cc1	7	6	-9	9003	12	1.1	-1
O=C(/C=C/c1ccccc1)N1CCN(c2ccc([N+](=O)[O-])c(N3CCOCC3)c2)CC1	2	0	0	4398	16	5.7	-13
COc1cc(C(=O)Nc2cc(C)cc(C)c2)c(-n2cnnn2)cc1OC	11	5	-1	4887	9	2.8	-25
O=C1/C(=C/c2ccccc2)Oc2cc(OC(=O)N3CCOCC3)ccc21	11	12	-5	6805	5	2.9	-22
CCC(=NNC(=O)c1ccc2c(c1)OCO2)C12CC3CC(CC(C3)C1)C2	6	1	.	.	3	-4.7	.
CCCSc1nc(=O)n2cccc(C)c2n1	14	5	14	9814	7	2.0	-22
COc1ccc(N(C(=O)c2ccncc2)S(=O)(=O)c2ccc(OC)c(OC)c2)cc1	.	-10	7	5840	.	2.0	-22
COc1ccc(N2CCN(C(=O)c3ccc(C)c(Cl)c3)CC2)cc1	10	1	3	4226	2	1.9	-8
Clc1cccc(CSC2=NCCCN2)c1	-6	-1	-10	6519	-12	0.0	-19
Cc1cc(C)n(C(=O)c2cccc([N+](=O)[O-])c2)n1	-7	4	-5	3310	4	2.8	-21
CC(C)CC[n+]1ccn(C2=C([O-])c3ccccc3C(=O)/C2=N\S(=O)(=O)c2ccccc2)c1	4	15	-6	10096	2	15	-17
C=CCSc1nnc(-c2cccc3ccccc23)o1	-3	5	.	2777	-2	3.3	-9
N#C/C(=C(/O)c1ccc([N+](=O)[O-])s1)c1nc2ccccc2[nH]1	-6	4	15	4876	2	6.4	-16
CC(C)CC(NP(=O)(O)OC1OC(C)C(O)C(O)C1O)C(=O)NC(Cc1c[nH]c2ccccc12)C(=O)O (configuration not stated)	0	0	.	.	0	3.2	.
Cc1cc(C)n2nc(SCc3nc4ccccc4[nH]3)nc2n1	.	7	-1	4344	.	0.2	-11
COc1cc(/C=N/n2c(-c3cc(C)[nH]n3)n[nH]c2=S)cc(OC)c1O	.	.	-3	4117	.	.	-15
COc1cc(CO)c(Br)cc1OCC(N)=O	8	8	1	2128	8	3.4	-12
O=C(CCc1ccccc1)Nc1cc2c3c(c1)CCC(=O)N3CCC2	0	4	7	.	2	0.2	-9
CCOC(=O)NNc1cc(C(F)(F)F)ccn1	4	-1	5	3586	4	0.8	-17
COCc1cc(C(C)=O)ccc1OC	6	2	1	2929	2	3.9	3
CC(=O)c1c(C)oc2ccc(N(C(=O)C3CCCCC3)S(=O)(=O)c3cc([N+](=O)[O-])ccc3C)cc12	-3	17	3	2510	2	4.9	-29
O=C(C[n+]1ccccc1)N/N=C/c1c(F)cccc1Cl	.	.	1	3156	.	.	59*
CCOc1ccccc1-n1c(SCC(=O)NCc2ccco2)nnc1-c1ccncc1	2	6	7	3362	2	7.9	5
CC1Oc2ccccc2N(CC(=O)c2ccccc2)C1=O (configuration not stated)	7	3	-9	11434	6	-0.4	-30
N#CC1=C(N)Oc2n[nH]c(-c3cccs3)c2C1C1CCCCC1 (configuration not stated)	12	-33	-4	2525	11	-3.3	-15
O=C1[C@@H]2C(c3cccnc3)=NO[C@@H]2C(=O)N1c1ccc2ccccc2c1	2	5	-4	6119	0	1.9	-16
COc1ccc(S(=O)(=O)N(C)CC(=O)N2CCOCC2)cc1Cl	7	9	0	3243	6	6.1	-5

# The results go on.
canonical_smiles	Mtb hypoxia rep	Sa ugtP lethal	BJeLR viability	Autofluor counter	Mtb hypoxia rep growth	Sa RN4220 lethal	PrP UTR inh
COc1cnc(SCCC(F)=C(F)F)[nH]c1=O	5	2	5	4530	6	2.2	-14
Cc1cccc2c(N=O)c(O)n(CCc3ccccc3)c12	8	-9	-7	6158	11	8.5	-14
O=C1Nc2cc(C(=O)N3CCOCC3)ccc2S/C1=C\c1ccccc1	7	-13	4	4012	2	3.9	-27
CCc1cccc(OCC(=O)Nc2ccc(C)c(S(=O)(=O)N3CCCCCC3)c2)c1	3	-18	-4	.	2	1.0	-2
COc1cc(OC)c(N(C)S(=O)(=O)c2cccc(C(=O)NC3=NCCS3)c2)cc1Cl	1	10	-12	4591	13	8.0	-14
CC(=NNC1=NCCN1)c1ccc(Cl)cc1	11	3	.	.	-3	4.1	.
Cc1cc(Cl)ccc1OCCCC(=O)N/N=C/c1cccc([N+](=O)[O-])c1	.	.	-3	2511	.	.	-12
CC(=O)c1cccc(-n2c(CCC(=O)O)ccc2-c2ccccc2)c1	-5	0	10	4026	4	9.0	-10
C[C@@H]1CN([C@@H](C)CO)C(=O)c2cc(NC(=O)Nc3ccc4c(c3)OCO4)ccc2O[C@H]1CN(C)S(=O)(=O)c1ccc(F)cc1	-3	11	.	4421	7	9.5	-6
O=C(NC(=S)Nc1ccccc1N1CCCCC1)c1ccc(F)cc1Cl	6	91*	-16	5678	0	-13	-4
Cc1ccccc1-n1c(-c2csc(C)c2C)n[nH]c1=S	3	0	12	2011	18	3.3	-7
O=C(O)COc1ccccc1C=NNC(=O)CN1CCN(Cc2ccccc2Cl)CC1	11	10	.	.	1	1.4	.
Cc1nnc(NN=Cc2ccccc2F)n1N	9	2	.	.	8	4.9	.
CCCOC(=O)c1ccc(O)c(OC)c1	11	1	1	4679	-3	2.5	-22
COc1cc(C)nc(Oc2ccc(OCCOc3ccccc3)nn2)n1	2	5	0	2585	0	3.2	-30

# A few values from above:
# Cc1cc(Cl)ccc1OCCCC(=O)N/N=C/c1cccc([N+](=O)[O-])c1 in BJeLR viability = -3
# C[C@@H]1CN([C@@H](C)CO)C(=O)c2cc(NC(=O)Nc3ccc4c(c3)OCO4)ccc2O[C@H]1CN(C)S(=O)(=O)c1ccc(F)cc1 in PrP UTR inh = -6

# Going on with the list:
canonical_smiles	Mtb hypoxia rep	Sa ugtP lethal	BJeLR viability	Autofluor counter	Mtb hypoxia rep growth	Sa RN4220 lethal	PrP UTR inh
Cc1nn(-c2ccccc2)c(Cl)c1C=NNC(=O)CNC(=O)c1ccccc1Cl	7	-5	.	.	3	-2.2	.
COC(=O)c1ccc(/C=N\NC(=O)CC(=O)NCCc2ccccc2)cc1	.	.	-6	2185	.	.	-10
COc1cc(/C=C/c2nc3ccccc3c(=O)[nH]2)cc(Cl)c1O	-17	-11	-5	5648	-7	-1.1	-29
CC(C)c1ccc(NC2CCCN(C(=O)c3cnn(C(C)C)c3)C2)cc1 (configuration not stated)	4	1	1	6012	7	0.4	-12
Cc1cccc(N2CCN(C(=O)c3ccccc3NC(=O)C3=CSCCO3)CC2C)c1 (configuration not stated)	-5	10	-5	5438	0	6.1	-14
Cc1nn(CC(=O)NC(C)C(C)C)c(C)c1S(=O)(=O)N1CCCCC1 (configuration not stated)	-2	9	.	.	-2	5.9	-22
COc1ccc(Cn2c(C)c(C)c(C#N)c2NC(=O)Nc2cccc(C)c2)cc1	0	7	-5	4784	0	-3.6	-13
Cc1ccccc1OCC(=O)NN1CCN(C)CC1	11	5	11	2478	9	5.8	-15
COCCN(CC(=O)Nc1cccc(C)c1C)C(=O)c1cc(-c2cccs2)nn1-c1ccccc1	3	-8	.	3109	-8	-1.6	-13
COc1ccc(NC(=O)CCOc2ccccc2)cc1	.	2	-2	5780	.	3.7	-47
O=C(COc1ccccc1Cl)NCCNC(=O)c1cccnc1	15	0	3	5090	6	-1.6	2
Cc1cc(C)c(NC(=O)CS(=O)CC(=O)Nc2ccc(N3CCOCC3)cc2)c(C)c1 (configuration not stated)	5	4	-6	5629	2	3.5	-43
CCOC(=O)Nc1sc(C)nc1-c1ccccc1	15	11	9	12866	4	3.1	-24
CC(=O)Nc1cc(NC(C)=O)c(CC(C)C)s1	-5	2	4	3719	-1	-4.8	1
Cc1cccc(N2CCN(c3ccc(C(N)=O)cc3[N+](=O)[O-])CC2)c1C	7	0	12	4081	3	1.2	-24

# Assay outcomes as filed in PubChem BioAssay.
